gsp antagonist – antagonizes gsp, the McCune-Albright syndrome mutation; gsp-mutant cells, cAMP HTRF, 30 min; control for the full effect not named in the record; Potency, µM (titrated, usually from 76.9 µM), without a hit: at the highest dose activity change, negative = inhibition, usual class: inhibitors; hit rate 0.4% among 340,000; active = falling curve of any shape with a large fitted effect; inconclusive = falling curve, mostly with a smaller effect; inactive = flat or rising curve; cell line not stated here;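 further: intracellular cAMP measured with PDE inhibitor Ro 20-1724 present during compound exposure; potency means the concentration at half of the fitted maximal effect; on the % scale 0 is the no-effect control and ±100 the full control effect; nearly all actives have a fitted effect of over 65% in size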
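HTRF cAMP measurement after 30 min RT detection following 30 min, 37C compound treatment alongside […] (added as 300 uM solution) in G418-selected cells seeded at 2000/well and grown 16–24 h.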
Sfp PPTase inh – inhibitors of Bacillus subtilis Sfp phosphopantetheinyl transferase. Biochemical Sfp PPTase activity, qHTS. Q9F4F7. hit rate 3.5% among 310,000. Potency, µM, for the others: max response, negative = inhibition, usual class: inhibitors. AID 1490; active means well fitted inhibition curve with a large enough effect; inconclusive means small, poorly fitted or top-dose-only effect, or another doubt; inactive means no such curve, though single readings can be large or run the other way;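 further: the enzyme is Sfp with the accession as filed and its product quenches rhodamine fluorescence; potency means the concentration at half of the fitted maximal effect; 0% = enzyme reaction without inhibitor and -100% = no enzyme wells; top concentration of the series not given in the record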
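With Hepes-Na pH 7.6 buffer containing 10 mM MgCl2, Sfp (15 nM) modified BHQ-2-YbbR (12.5 uM) using rhodamine-CoA (5 uM). Two reads 30 minutes apart at 525/598 nm yielded each well's rate.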
gsp agonist – activates gsp, the McCune-Albright syndrome mutation | gsp mutant cells, cAMP HTRF, 30 min; control for the full effect not named in the record | Potency, µM (doses to about 76.9 µM), for the others: at the highest dose activation (cAMP increase), most hits filed as activators | hit rate 0.13% among 340,000 | AID 624287; active = well fitted activation curve with a large enough effect; inconclusive = small, poorly fitted or top-dose-only effect, or another doubt; inactive = no such curve, though single readings can be large or run the other way; cell line not stated here;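 further: phosphodiesterase inhibitor Ro 20-1724 added with compounds to block cAMP breakdown; potency means the concentration at half of the fitted maximal effect; nearly all actives have a fitted effect of over 60% in size; about a fifth of the inactives were tested at one dose only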
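Cells stably selected in G418 were plated at 2000/well, grown 16-24 hr, then given compounds in DMSO with the PDE inhibitor […] (300 uM solution added) for 30 min at 37C; cAMP was read by HTRF.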
ClpP mod – qHTS Assay for Activators of ClpP. ATP-dependent Clp protease proteolytic subunit (Bacillus subtilis (strain 168)), P80244. purified B. subtilis ClpP, FRET peptide cleavage, 20 min. Potency, µM (doses to about 57.5 µM), for inactives: at the top dose activity change, negative = active. hit rate 1.9% among 340,000. AID 651965, 2013; active = well fitted falling curve with a large enough effect; inconclusive = small, poorly fitted or top-dose-only effect; inactive = no such curve, though single readings can be large or run the other way; further: potency means the concentration at half of the fitted maximal effect; the source files actives as falling curves though it sought activators and does not explain the sign; nearly all actives have a fitted effect of over 65% in size; many hits overshoot -100%
Target sequence (P80244 whole entry, looked up): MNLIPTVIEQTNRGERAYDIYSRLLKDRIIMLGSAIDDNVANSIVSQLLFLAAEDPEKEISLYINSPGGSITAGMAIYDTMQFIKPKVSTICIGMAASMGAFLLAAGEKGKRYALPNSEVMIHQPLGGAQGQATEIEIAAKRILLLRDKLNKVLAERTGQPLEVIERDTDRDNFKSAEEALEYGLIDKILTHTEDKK
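Buffer: 100 mM Tris/HCl pH8, 100 mM KCl, 0.05% low protease BSA, 2.5% glycerol, 0.01% Tween-20. ClpP 10 microg/mL final; 20 min RT; delta FRET normalized to ADEP and DMSO controls.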
TRPV1 PAM – potentiators of human vanilloid receptor 1 (TRPV1) | Q8NER1 | TRPV1-expressing cells, Fluo-8 calcium influx, capsaicin EC20 potentiation; host cell line not named in the record; control for the full effect not named in the record | hit rate 0.02% among 320,000 | potentiation, % at 8.33 µM; active means potentiation above 80%; inconclusive means 30% to 80%; inactive means below 30%; further: 0% is about no effect
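TRPV1-expressing cells were cultured overnight at 35.5C and loaded with Fluo-8 calcium dye for 40 to 90 min at room temperature. After a 10 s baseline, compound was added and calcium influx was read kinetically for 3 min (ex 480/em 520 nm).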
Menin MLL FP FL – menin-MLL binding inhibition, fluorescein peptide | FP activity change, % at 61.4 µM | AID 1766 | Fluorescence polarization, fluorescein-MLL peptide displacement from menin | 290,000 tested, under 10 active; inconclusive = falling polarisation curve, or a change in total fluorescence; inactive = total fluorescence flat and polarisation flat or rising; no compound was filed as active; the % refers to the polarisation; negative = inhibition;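 further: % of control where 0% means no effect; inhibitors lower the polarisation; unlabelled MLL peptide was the positive control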
D2 potentiator – positive allosteric modulators of human D2 dopamine receptor. DiscoveRx D2 beta-arrestin cells, luminescence, 90 min; 100% = 57 uM dopamine signal. potentiation, % (concentration not given with the values). hit rate 0.23% among 360,000. AID 624464; active = potentiation of 50% or more; inconclusive = 30% to 50%; inactive = 30% or less;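 further: compound concentration not given in the record; tested on top of an EC20 dose of dopamine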
Target sequence (P14416 whole entry, looked up): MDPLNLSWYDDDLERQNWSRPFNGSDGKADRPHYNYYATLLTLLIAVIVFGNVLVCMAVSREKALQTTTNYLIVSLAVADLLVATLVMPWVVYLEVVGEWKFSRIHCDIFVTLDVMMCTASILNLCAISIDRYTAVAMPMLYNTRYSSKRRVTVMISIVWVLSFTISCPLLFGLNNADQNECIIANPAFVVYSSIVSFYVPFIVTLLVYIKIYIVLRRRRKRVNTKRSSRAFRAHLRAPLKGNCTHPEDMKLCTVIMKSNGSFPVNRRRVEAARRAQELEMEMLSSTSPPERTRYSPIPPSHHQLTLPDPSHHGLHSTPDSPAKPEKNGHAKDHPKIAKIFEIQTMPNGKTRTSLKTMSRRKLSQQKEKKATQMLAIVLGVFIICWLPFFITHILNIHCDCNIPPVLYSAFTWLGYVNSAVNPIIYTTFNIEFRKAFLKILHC
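D2 cells co-treated with compound plus 50 nM dopamine (EC20) for 90 min at 37 deg C to detect potentiation. Beta-arrestin recruitment was read as enzyme-fragment luminescence after 1 h at ambient temperature. Full response was set by 57 uM dopamine.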
Starred values were filed as active, the others as inactive; [ ] = another dose, or the depositor's remark.

What do the screens show for `CCCS(=O)(=O)c1csc(C(=O)OC)c1N`?
gsp antagonist: 2%; Sfp PPTase inh: -1%; gsp agonist: 22%; TRPV1 PAM: -6; Menin MLL FP FL: -1.1; D2 potentiator: -3

How did CCN(CC)Cc1nc2c(c(=O)[nH]1)C1(CCCC1)Cc1ccccc1-2 do in these assays?
gsp antagonist: 2%; Sfp PPTase inh: -9%; gsp agonist: 7%; ClpP mod: -5.0%; TRPV1 PAM: -11; Menin MLL FP FL: -0.8; D2 potentiator: -21

Results for COc1c(S(=O)(=O)N2CCCCC2)ccc2c(S(=O)(=O)N3CCCCC3)cccc12 ?
gsp antagonist: -20%; gsp agonist: -42%[inhibitor]; ClpP mod: -1.5%; D2 potentiator: 6

What do the screens show for `CC1=C(C(=O)N(C)C)CC(CC(=O)NC2CCCC2)C(=O)N1Cc1ccccc1` (stereo unspecified)?
gsp agonist: -14%; ClpP mod: -0.3%; D2 potentiator: -1

How did CC1=Nc2cc([N+](=O)[O-])ccc2NC(C)(C)C1 do in these assays?
gsp antagonist: 0%; Sfp PPTase inh: inconclusive; gsp agonist: inconclusive; ClpP mod: 0.6%; TRPV1 PAM: -3; Menin MLL FP FL: 2.4; D2 potentiator: 2

How did COc1cc2c(cc1OC)CN(C(=O)CN1CCN(S(=O)(=O)c3ccccc3)CC1)CC2 do in these assays?
gsp antagonist: -27%; Sfp PPTase inh: 3%; gsp agonist: 18%; ClpP mod: -6.0%; TRPV1 PAM: 0; D2 potentiator: -7

What do the screens show for `COc1ccc(NC(=O)NCc2cccnc2)cc1`?
gsp antagonist: inconclusive; Sfp PPTase inh: 17%; gsp agonist: inconclusive; ClpP mod: 1.9%; TRPV1 PAM: 8; D2 potentiator: -11

How did CCCc1nc2c(nnn2Cc2ccccc2F)c(=O)[nH]1 do in these assays?
gsp antagonist: 2%; Sfp PPTase inh: 11%; gsp agonist: -42%[inhibitor]; ClpP mod: -13%; TRPV1 PAM: -8; Menin MLL FP FL: 3.6; D2 potentiator: -11

How did O=C(NCCN1CCN(C(=O)c2ccc(F)cc2)CC1)C(=O)NCc1ccccc1 do in these assays?
gsp antagonist: 5%; Sfp PPTase inh: 14%; gsp agonist: 0%[15.4 µM]; ClpP mod: -1.7%; TRPV1 PAM: 2; Menin MLL FP FL: 0.6; D2 potentiator: -11

How did CCNC(=S)Nc1ccc(OCC)cc1 do in these assays?
gsp antagonist: 9%; Sfp PPTase inh: 14%; gsp agonist: -12%; ClpP mod: -1.4%; TRPV1 PAM: -1; Menin MLL FP FL: 9.1; D2 potentiator: -7

What do the screens show for `COc1cccc(-n2nnc3c(=O)n(Cc4ccc(C)cc4)cnc32)c1`?
gsp antagonist: 7%; Sfp PPTase inh: 7%; gsp agonist: -37%[inhibitor]; ClpP mod: -4.3%; TRPV1 PAM: 17; Menin MLL FP FL: 7.6; D2 potentiator: -6

What do the screens show for `C[C@@H]1CCCCO[C@H](CN(C)C(=O)Cc2ccccc2)[C@H](C)CN([C@@H](C)CO)C(=O)c2cc(NC(=O)Nc3ccc(F)cc3)ccc2O1`?
gsp agonist: 0%; ClpP mod: -2.8%; D2 potentiator: -12

How did CCOC(=O)c1c(-c2ncc(C(F)(F)F)cc2Cl)noc1C do in these assays?
gsp antagonist: 4%; Sfp PPTase inh: 17%; gsp agonist: -1%; TRPV1 PAM: -7; Menin MLL FP FL: 1.3; D2 potentiator: -4

Results for CCOc1ccc(N2C(=O)C(c3ccccc3)=C(c3nc4ccccc4s3)C2NC(C)=O)cc1 (stereo unspecified) ?
gsp antagonist: -15%; Sfp PPTase inh: 11%; gsp agonist: -2%; ClpP mod: 0.4%; TRPV1 PAM: 9; Menin MLL FP FL: -0.3; D2 potentiator: -2

What do the screens show for `CC(=O)OC(C)(C)/C=C/C(=O)[C@](C)(O)C1[C@H](O)C[C@@]2(C)C3CC=C4C(C=C(O[C@@H]5O[C@H](CO)[C@@H](O)[C@H](O)[C@H]5O)C(=O)C4(C)C)[C@]3(C)C(=O)C[C@]12C` (stereo partly specified)?
gsp antagonist: 11%; ClpP mod: 0.0%; D2 potentiator: -11

What do the screens show for `Cc1ccc2c(Cl)c(C(=O)NCC3CCCO3)sc2c1` (stereo unspecified)?
gsp antagonist: -13%; Sfp PPTase inh: 1%; gsp agonist: 6%; ClpP mod: -5.6%; TRPV1 PAM: -2; Menin MLL FP FL: 5.0; D2 potentiator: 8

Results for COc1ccc(COC(=O)c2cc([N+](=O)[O-])ccc2N2CCOCC2)cc1F ?
gsp antagonist: 7%; gsp agonist: 26%[15.4 µM]; TRPV1 PAM: -19; D2 potentiator: -19

Results for N#C/C(=C\Nc1ccccc1SC(F)(F)F)c1nc(-c2ccccc2)cs1 ?
gsp antagonist: 4%; Sfp PPTase inh: -7%; gsp agonist: -27%; ClpP mod: -0.7%; TRPV1 PAM: 7; Menin MLL FP FL: 4.4; D2 potentiator: -6

What do the screens show for `O=C(CSc1nnc(CCCO)n1-c1ccccc1)NCCc1ccccc1`?
gsp antagonist: 5%; Sfp PPTase inh: 15%; gsp agonist: -35%[inhibitor]; ClpP mod: 0.9%; TRPV1 PAM: -6; Menin MLL FP FL: 1.3; D2 potentiator: -21

How did CC(NS(=O)(=O)c1ccccc1)C(c1cccs1)N1CCOCC1 (stereo unspecified) do in these assays?
gsp antagonist: 7%; Sfp PPTase inh: 1%; gsp agonist: inconclusive; ClpP mod: -1.2%; TRPV1 PAM: 11; Menin MLL FP FL: 5.0; D2 potentiator: -7

Results for CCOc1c(C)cnc2c1c(=O)n(Cc1ccccc1F)c(=O)n2C ?
gsp antagonist: -10%; Sfp PPTase inh: -7%; gsp agonist: inconclusive; ClpP mod: -18%; TRPV1 PAM: -27; Menin MLL FP FL: 2.9; D2 potentiator: 1

How did Nc1ccccc1S(=O)(=O)NCCCCc1ccccc1 do in these assays?
gsp antagonist: 9%; Sfp PPTase inh: 0%; gsp agonist: -1%; ClpP mod: -10%; TRPV1 PAM: inconclusive; Menin MLL FP FL: 0.1; D2 potentiator: -13

Results for CCOc1ccccc1N(CC(=O)Nc1ccccc1C(=O)O)S(C)(=O)=O ?
gsp antagonist: 3%; Sfp PPTase inh: 19%; gsp agonist: -17%; ClpP mod: -5.9%; TRPV1 PAM: 17; Menin MLL FP FL: 0.0; D2 potentiator: -5

Results for CCN(CC)S(=O)(=O)c1ccc(N2CCCC2)c(NC(=O)C2CCCCC2)c1 ?
gsp antagonist: -6%; Sfp PPTase inh: 0%; gsp agonist: 23%; ClpP mod: -1.3%; TRPV1 PAM: -13; Menin MLL FP FL: 0.1; D2 potentiator: -10

Results for CC(C)(C)c1cc(CCC(=O)NN)cc(C(C)(C)C)c1O ?
gsp antagonist: 5%; Sfp PPTase inh: 5%; gsp agonist: 11%[15.4 µM]; ClpP mod: -20%; TRPV1 PAM: -8; Menin MLL FP FL: -4.6; D2 potentiator: -4

What do the screens show for `CCn1ncc(NC(=S)Nc2ccc(OC)c(OC)c2)c1C(N)=O`?
gsp antagonist: -5%; Sfp PPTase inh: 32µM*; gsp agonist: -8%[15.4 µM]; TRPV1 PAM: 5; Menin MLL FP FL: -0.9; D2 potentiator: -32

How did COc1ccc(CC2S/C(=C(\C#N)C(=O)NCc3ccco3)N(c3ccc(C)cc3)C2=O)cc1 (stereo unspecified) do in these assays?
gsp antagonist: -6%; Sfp PPTase inh: 9%; gsp agonist: 37%; ClpP mod: 1.7%; TRPV1 PAM: 4; Menin MLL FP FL: 3.6; D2 potentiator: -6

How did CCC(C)NC(=O)Cn1c(=O)n(-c2ccccc2)c(=O)c2ccc(C(=O)NCc3ccco3)cc21 (stereo unspecified) do in these assays?
gsp antagonist: 0%; Sfp PPTase inh: 6%; gsp agonist: 2%; ClpP mod: -5.6%; TRPV1 PAM: -3; Menin MLL FP FL: 5.8; D2 potentiator: 6

Results for O=C1OCCC1Sc1nnc(-c2cccnc2)n1-c1ccccc1F (stereo unspecified) ?
gsp antagonist: 1%; Sfp PPTase inh: 8%; gsp agonist: -19%; TRPV1 PAM: -4; Menin MLL FP FL: 0.6; D2 potentiator: 4

Results for Cc1ccc(NC(=O)NC2CCCCCCC2)c(C)c1 ?
gsp antagonist: 6%; Sfp PPTase inh: 22%; gsp agonist: 6%; ClpP mod: 0.6%; TRPV1 PAM: -14; D2 potentiator: -15

How did O=C(/C=C/c1ccc(O)cc1)OCc1occc(=O)c1O[C@@H]1OC(CO)[C@@H](O)[C@H](O)[C@@H]1O (stereo partly specified) do in these assays?
gsp antagonist: -4%; Sfp PPTase inh: 3%; ClpP mod: -4.7%; TRPV1 PAM: 5; Menin MLL FP FL: -1.7; D2 potentiator: -30

Results for Cc1cc(SCC#N)n2nc(C)c(-c3ccc(Cl)cc3)c2n1 ?
gsp antagonist: 14%; Sfp PPTase inh: 11%; gsp agonist: -21%; ClpP mod: 0.1%; TRPV1 PAM: 0; Menin MLL FP FL: 1.6; D2 potentiator: -8

Results for CNS(=O)(=O)c1cccc(C(=O)OCc2cc(Cl)cc3c2OCOC3)c1 ?
gsp antagonist: inconclusive; Sfp PPTase inh: 5%; gsp agonist: 23%; ClpP mod: 0.4%; TRPV1 PAM: -4; Menin MLL FP FL: -1.3; D2 potentiator: -6

What do the screens show for `COc1ccc(C(c2c(NC(=O)c3ccccc3)sc(C)c2C)N2CCN(CCO)CC2)cc1` (stereo unspecified)?
gsp antagonist: 2%; Sfp PPTase inh: -23%; gsp agonist: 0%; ClpP mod: -0.2%; TRPV1 PAM: -14; Menin MLL FP FL: -6.0; D2 potentiator: -3

How did NC(CO)(CO)COCc1ccccc1 do in these assays?
gsp antagonist: 14%; Sfp PPTase inh: 5%; gsp agonist: -4%; TRPV1 PAM: -14; Menin MLL FP FL: -4.0; D2 potentiator: -2

High-throughput results (PubChem)

Rows are unselected. About 5.1% of those tested had a hit in this group.
